Assay outcomes as filed in PubChem BioAssay.
2A firefly – Primary qHTS Assay for Foot and Mouth Disease Virus Antivirals against NCGC Sytravon and CBC Compound Libraries: Firefly Luciferase Signal. HEK cells with a luciferase reporter of 2A StopGo recoding. Potency, µM (titrated, usually from 57.5 µM), inactives show at the top dose signal change, negative = less light. hit rate 0.23% among 120,000. AID 1745856, 2022; active = well fitted falling curve with a large enough effect; inconclusive = small, poorly fitted or top-dose-only effect; inactive = no such curve, though single readings can be large or run the other way; also: nearly all actives have a fitted effect of over 60% in size; overnight with compound
2A Renilla – Primary qHTS Assay for Foot and Mouth Disease Virus Antivirals against NCGC Sytravon and CBC Compound Libraries: Renilla Luciferase Signal. HEK cells with a luciferase reporter of 2A StopGo recoding. Potency, µM (top dose mostly 57.5 µM), for the others: at the top dose signal change, negative = less light. hit rate 0.32% among 120,000. AID 1745857, 2022; active means well fitted falling curve with a large enough effect; inconclusive means small, poorly fitted or top-dose-only effect; inactive means no such curve, though single readings can be large or run the other way; also: nearly all actives have a fitted effect of over 55% in size; overnight with compound
The depositor's hits bear a star; u = inconclusive; & = joins results of further samples; [ ] = remark or other dose. % is scaled to controls: 0 for no effect and ±100 for the full control effect; potency is read from the fitted curve at half-maximal effect.

SMILES | 2A firefly | 2A Renilla
CCOC(=O)C1CCN(C(=O)CN2c3ccc(CC)cc3-c3ccccc3S2(=O)=O)CC1 | 87%&89%[activator] | 79%&119%[activator]
CC(Nc1ncnc2c1cnn2-c1cccc(Cl)c1)c1ccccc1 (centres undefined) | 210%[activator] | 32%[activator]
CCN1CCN(c2nc(Nc3ccccc3)c3cnn(-c4ccccc4)c3n2)CC1 | 6% | -6%
C=CCOc1cccc(NC(=O)C(C)Oc2ccccc2)c1 (centres undefined) | 66%[activator] | 29%
Cc1ccc(C2C3=C(CC(C)(C)CC3=O)Nc3nc(SCCC(C)C)[nH]c(=O)c32)s1 (centres undefined) | 0% | -3%
COC(=O)c1ccccc1NC(=O)c1nn(C2CCS(=O)(=O)C2)c2c1CCCC2 (centres undefined) | 22% | 0%
COCCN(CCOC)C(=O)COc1cc2oc(=O)cc(-c3ccccc3)c2cc1Cl | -14% | 2%
COc1ccc(C)cc1NC(=O)c1cnc2ccc(C)cn2c1=O | -8% | -4%
COc1ccc(-c2csc3ncnc(Nc4ccc(OC)cc4OC)c23)cc1 | -26%&-31% | -13%&-2%
O=C(NC1CCN(C(=O)c2ccc3ccccc3n2)CC1)c1ccccc1 | -9% | -11%
Cc1cc(Nc2nc3ccccc3nc2NS(=O)(=O)c2ccccc2)ccc1Cl | 10% | 1%
CN(CCC#N)S(=O)(=O)c1ccc(Cl)cc1F | -8% | -8%
CCOC(=O)Cc1csc(NC(=O)c2nc(-c3ccccc3)oc2C)n1 | 10% | -12%
CCOC(=O)c1c(NC(=O)c2cc(=O)c3cc(C)ccc3o2)sc2c1CCCC2 | -12% | 1%
CCCCn1c(=O)n(CC(O)COc2ccc(OCC)cc2)c(=O)c2c1ncn2CCOC (centres undefined) | -1% | -2%
Cc1cccc(-n2c(C)cc(C(=O)C(=O)Nc3ccccc3F)c2C)c1C | -12% | 18%
NS(=O)(=O)c1ccc(NC(=O)CN(Cc2ccc3c(c2)OCO3)C2CCCC2)cc1 | 4% | 203%[activator]
CN(CCOC(=O)c1ccccc1Br)C(C)(C)C | 14% | 4%
CCCC(C)NC(=O)CSc1nc2ccccc2o1 (centres undefined) | 21% | 0%
O=C(CC(=O)Nc1ccccc1F)Nc1ccc2nc3n(c(=O)c2c1)CCCCC3 | 46%[activator] | 91%[activator]
Cc1cccc(-n2nc(C)c(C(=O)N3CCc4ccccc4C3)c2-n2cccc2)c1 | u | u
CS(=O)(=O)c1ccccc1C(=O)Nc1ccc(-c2ccccc2)cc1 | 10% | 10%
Cc1ccc(CSc2c(C)cnc3c2c(=O)n(C)c(=O)n3C)cc1 | -3% | -2%
COc1ccc(CNC(=O)c2ccc3c(c2)N(Cc2ccccc2)C(=O)c2ccccc2S3(=O)=O)cc1 | 0% | 28%
CCN(CC)S(=O)(=O)c1ccc2c(c1)nc(SCC(=O)Nc1ccc(OC)cc1)n2CC | 5% | 16%

Single records, from the list above:
`Cc1ccc(C2C3=C(CC(C)(C)CC3=O)Nc3nc(SCCC(C)C)[nH]c(=O)c32)s1` (centres undefined) in the list: 2A firefly: 0%; 2A Renilla: -3%
`CCCCn1c(=O)n(CC(O)COc2ccc(OCC)cc2)c(=O)c2c1ncn2CCOC` (centres undefined) in the list: 2A firefly: -1%; 2A Renilla: -2%

Of the compounds above, 2 contain two or more sulfur atoms.
SMILES | 2A firefly | 2A Renilla
Cc1ccc(C2C3=C(CC(C)(C)CC3=O)Nc3nc(SCCC(C)C)[nH]c(=O)c32)s1 (centres undefined) | 0% | -3%
CCN(CC)S(=O)(=O)c1ccc2c(c1)nc(SCC(=O)Nc1ccc(OC)cc1)n2CC | 5% | 16%

Three entries from above, as labelled records.
> COCCN(CCOC)C(=O)COc1cc2oc(=O)cc(-c3ccccc3)c2cc1Cl
  2A firefly: -14%
  2A Renilla: 2%

> COc1ccc(C)cc1NC(=O)c1cnc2ccc(C)cn2c1=O
  2A firefly: -8%
  2A Renilla: -4%

> COc1ccc(-c2csc3ncnc(Nc4ccc(OC)cc4OC)c23)cc1
  2A firefly: -26%&-31%
  2A Renilla: -13%&-2%

(list continues)
SMILES | 2A firefly | 2A Renilla
O=C(Nc1nc2c(F)cccc2s1)c1ccc(S(=O)(=O)N2CCOCC2)cc1 | 64%[activator] | 8%
COc1ccc(-n2cc(-c3ccccc3)c3c(Nc4ccc(OC)c(OC)c4)ncnc32)cc1 | -22% | -10%
COc1ccc(Nc2cc(C(=O)NCc3ccccc3)c3ccccc3n2)c(OC)c1 | 44%[activator] | 44%[activator]
CCOc1ccc(OCC)c(NC(=O)C2CCN(S(=O)(=O)c3c(C)noc3/C=C/c3ccccc3F)CC2)c1 | -17% | 1%
CC(C)(C)C(=O)COc1ccc(S(C)(=O)=O)cc1 | 0% | -15%
CCN1CCCC1CNC(=O)CCNc1nc(Cl)nc2nc[nH]c12 (centres undefined) | 7% | 0%
Cc1ccc(NC(=O)c2ccco2)c(NC(=O)c2cccs2)c1 | 13% | 16%
O=C(Nc1cccc(S(=O)(=O)N2CCCCCC2)c1)c1cc(=O)c2ccccc2o1 | u | u
CCc1cccc(-n2nnc(-c3nc(-c4ccc5c(c4)OCO5)no3)c2C)c1 | 0% | -14%
Cc1csc(SCC(=O)Nc2nc3ccccc3s2)n1 | 187%[activator] | 17%
O=C1CC(c2cccc(Cl)c2)Cc2nc3nc(C(F)(F)F)nn3cc21 (centres undefined) | -9% | -17%
Brc1cccc(-c2nc3ccccc3o2)c1 | 96%[activator] | 5%
CCOc1ccc(S(=O)(=O)[C@H]2CS(=O)(=O)C[C@@H]2NCc2ccco2)cc1 | -6% | -13%
C[C@]12CC[C@@H]3c4ccc(O)cc4CC[C@H]3[C@@H]1CC[C@@H]2OC(=O)CCC1CCCC1 | 2%[11.5 µM] | -1%
Cc1cc(NS(=O)(=O)c2ccc(NC(=O)COc3cc(C)c(Br)cc3C(C)C)cc2)no1 | 3% | 1%
CC(C)c1nnc2sc(-c3c[nH]c4ccccc34)nn12 | 15% | -2%
COCCNC(=O)Cn1cc(S(=O)(=O)Cc2ccccc2F)c2ccccc21 | 45%[activator] | 35%[activator]
O=c1c(S(=O)(=O)c2ccccc2)cn(Cc2cccc(F)c2)c2cc(N3CCCC3)c(F)cc12 | 20% | 3%
COc1ccc(N2CCN(C(=O)c3cc4c(=O)n(Cc5ccccc5)ccc4nc3C)CC2)cc1 | -21% | -12%
Nc1nccnc1C(=O)NCCNc1ncc(C(F)(F)F)cc1Cl | 9% | -5%[1.06 µM]
Cc1ccc(CN2CCN(C3CCN(C(=O)Nc4ccccc4C(F)(F)F)CC3)C(=O)C2=O)cc1 | -4% | -1%
O=C(Cc1c[nH]c2ccccc12)N1CCC(c2nc(C3CC3)n[nH]2)CC1 | 8% | -3%
O=C(C1CCC1)N(C1CCCCC1)C1CCCCC1 | 8% | -7%[1.06 µM]
O=C(C(c1ccccc1)N1CCN(C2CCS(=O)(=O)C2)CC1)N1CCOCC1 (centres undefined) | 6% | -2%[1.06 µM]
CCOC(=O)c1ccc2c(c1)N(Cc1ccc(F)cc1Cl)C(=O)c1ccccc1S2 | -17% | -1%
SMILES | 2A firefly | 2A Renilla
O=C(Cn1cc(S(=O)(=O)Cc2cccc(Cl)c2)c2ccccc21)NCCc1ccccc1 | -1% | 3%
COc1ccc(Oc2nc3c(C)cccn3c(=O)c2/C=C(\C#N)c2nc3ccccc3[nH]2)cc1 | -11% | -5%
COc1ccc(C2=C(C)C(N3CCC(C(=O)Nc4ccc(F)cc4C)CC3)=NS2(=O)=O)cc1 | -5% | 1%
COc1ccc(NC(=O)c2oc3ccccc3c2NC(=O)C23CC4CC(CC(C4)C2)C3)c(OC)c1 | -5% | -10%
COc1ccc(NC(=O)c2csnn2)cc1Cl | 135%[activator] | 12%
CCOc1ccc(NC(=O)c2sc3nc4c(cc3c2N)CN(Cc2ccccc2)CC4)cc1 | -4% | -12%
Cc1nc(C)c(CCNS(=O)(=O)c2ccc(C)c(C)c2)s1 | 4% | 230%[activator]
Cn1ncc(C(=O)N2CCN(c3ccccc3F)CC2)c1C1CCN(C(=O)OC(C)(C)C)CC1 | -24% | -4%
Cc1cccc(NC(=O)COC(=O)c2nn(C)c(=O)c3ccccc23)c1C | 7% | -2%
CCOC(=O)c1c(S(=O)(=O)N2CCCC(C(=O)Nc3ccc(C)cc3C)C2)c(C)n(CC)c1C (centres undefined) | -3% | 15%
COCCNC(=O)c1cccc(-n2c(C)nc3cccnc32)c1 | -12% | -8%
CC(C)CCNC(=O)Nc1ccc2c(c1)N(Cc1ccccc1)C(=O)c1ccccc1S2 | -13% | 6%
Cc1[nH]c(SC(C)C(=O)Nc2ccc(S(=O)(=O)N3CCCC3)cc2)nc1Cc1ccccc1 (centres undefined) | 21% | 37%[activator]
O=c1oc2ccccc2c(N2CCN(c3cccc(C(F)(F)F)c3)CC2)c1CN1CCCC1 | -5% | 1%
CN(C)S(=O)(=O)Nc1ccc(-c2cn3ccsc3n2)cc1 | 215%[activator] | 15%
O=C1c2oc3ccccc3c(=O)c2C(c2cccc(O)c2)N1Cc1ccc(F)cc1 (centres undefined) | -10% | 5%
CC(C)CC(NC(=O)c1ccc(C(C)C)cc1)C(=O)O (centres undefined) | 28% | 13%
COc1cc(CNC(=O)Cc2ccc(OC)c(OC)c2)ccn1 | 9% | 4%
CCOC(=O)N1CCC(NC(=O)c2cnn(-c3ccc(F)cc3)c2-n2cccc2)CC1 | 20% | 12%
COc1ccc(N2CC(O)=C(c3nc4ccccc4s3)C2=N)cc1 | 4% | 125%[activator]
Cc1c(Cl)cccc1NC(=O)C1CCCN(c2nnc(-n3c(C)ccc3C)s2)C1 (centres undefined) | 39%[activator] | 13%
Cc1ccc(CCNC(=O)c2cnc3c(C)cccn3c2=O)cc1 | -12% | -14%
CC1CCCC(NC(=O)c2cnc(Cl)c(Cl)c2)C1 (centres undefined) | 60%[activator] | 24%
CCN(CC(=O)NC(C)(C)C)C(=O)Cn1c(=O)c2c(ncn2C)n(C)c1=O | 2% | -2%
Cc1cccc(-n2nc(C)c(C(=O)N3CCN(c4ccccc4)CC3)c2-n2cccc2)c1 | -19% | -10%
SMILES | 2A firefly | 2A Renilla
Cc1ccc(Cl)cc1OCc1n[nH]c(=S)n1C | 21% | -2%
CCCn1nc(C(=O)OCc2nnc(C)o2)c2ccccc2c1=O | -8% | -5%
CC(=O)c1ccc(NC(=O)CCc2c(C)nn(-c3ccc4nnc(C)n4n3)c2C)cc1 | -15% | -11%
CCc1ccc(NC(=O)C2CCCN2S(=O)(=O)c2ccc3c(c2)n(C)c(=O)c(=O)n3C)cc1 (centres undefined) | -23% | -20%
O=C1Nc2ccc(Br)cc2C1(O)C(F)(F)F (centres undefined) | 11% | 7%
Cc1nc2sccn2c(=O)c1S(=O)(=O)Nc1cc(Cl)ccc1O | -4% | 160%[activator]
Cc1ccc2nc(N3CCC(C(=O)N4CCN(c5cccc(Cl)c5)CC4)CC3)[nH]c2c1 | -21% | u
Cc1c(N)c(=O)n(-c2ccccc2)n1C | -7%[11.5 µM] | -8%
O=C(Cn1cnc2c(Cl)cc(Cl)cc2c1=O)N1CCCC1c1ccc2c(c1)OCCO2 (centres undefined) | 10% | 149%[activator]
CC(=O)N1CCc2nc3sc(C(=O)Nc4cccc(F)c4)c(N)c3c(C(F)(F)F)c2C1 | 0% | -5%
CSc1nc(Nc2cccc(F)c2)c(C#N)c(-c2ccccc2)n1 | -2% | -6%
COc1cccc(NC(=O)Cn2c(=O)n(CCC(=O)NCc3ccccc3OC)c(=O)c3ccccc32)c1 | -14% | 3%

Some values from the list:
2A Renilla result of COCCNC(=O)Cn1cc(S(=O)(=O)Cc2ccccc2F)c2ccccc21 is entered as 35%[activator]
2A Renilla result of CCOC(=O)N1CCC(NC(=O)c2cnn(-c3ccc(F)cc3)c2-n2cccc2)CC1 is entered as 12%
2A Renilla result of O=C(Cc1c[nH]c2ccccc12)N1CCC(c2nc(C3CC3)n[nH]2)CC1 is entered as -3%

A portion of the library; rates above refer to the full screens.
